PV pol inh: poliovirus RNA polymerase inhibition. P03300. poliovirus polymerase elongation, fluorescence polarization; stronger effect = lower value. % elongation, % (compound at 16.7 µg/mL). 150,000 compounds, 0.66% hits. AID 588519; in the data active = % elongation below about 90%; note: some results filed as inactive read as strong as hits
MbtI inh: MbtI salicylate synthase inhibition; P9WFX0; purified MbtI enzyme, fluorescence intensity read-out; inhibition, %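 (about 17 µg/mL by stock and volumes)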; 100,000 compounds, 0.89% hits; AID 493033;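 active = above 50% in both replicates, above 80% if mildly self-fluorescent; inactive = the rest, strongly fluorescent compounds included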;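 note: 0% = mean of negative and 100% = mean of positive controls; one replicate is shown; some compounds called inactive have numbers as strong as hits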
Target sequence (P9WFX0 whole entry, looked up): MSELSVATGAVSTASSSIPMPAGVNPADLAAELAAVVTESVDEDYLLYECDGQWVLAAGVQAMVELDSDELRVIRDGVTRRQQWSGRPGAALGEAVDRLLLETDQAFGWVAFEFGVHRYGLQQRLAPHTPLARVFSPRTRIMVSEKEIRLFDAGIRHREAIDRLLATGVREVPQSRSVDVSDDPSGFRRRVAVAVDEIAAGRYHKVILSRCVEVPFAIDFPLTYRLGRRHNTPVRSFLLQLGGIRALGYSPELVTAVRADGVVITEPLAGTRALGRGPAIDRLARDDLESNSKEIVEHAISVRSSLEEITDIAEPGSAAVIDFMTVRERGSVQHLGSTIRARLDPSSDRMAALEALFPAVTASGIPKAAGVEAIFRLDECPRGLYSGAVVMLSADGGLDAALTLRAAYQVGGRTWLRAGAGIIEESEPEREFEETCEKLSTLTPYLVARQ
MenB inh: inhibitors of Mycobacterium tuberculosis MenB enzyme; MenB enzyme assay, absorbance read-out; some hits fall short of the stated cut; AID 540299; 100,000 compounds, 0.43% hits; P9WNP5; inhibition, %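 (about 12 µg/mL by stock and volumes)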;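 active = mean of two replicates above 30%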;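 note: 0% = no compound and 100% = wells with inactive enzyme; the first replicate is given; strong numbers were not always called active; inactives centre near -10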
Target sequence (P9WNP5 whole entry, looked up): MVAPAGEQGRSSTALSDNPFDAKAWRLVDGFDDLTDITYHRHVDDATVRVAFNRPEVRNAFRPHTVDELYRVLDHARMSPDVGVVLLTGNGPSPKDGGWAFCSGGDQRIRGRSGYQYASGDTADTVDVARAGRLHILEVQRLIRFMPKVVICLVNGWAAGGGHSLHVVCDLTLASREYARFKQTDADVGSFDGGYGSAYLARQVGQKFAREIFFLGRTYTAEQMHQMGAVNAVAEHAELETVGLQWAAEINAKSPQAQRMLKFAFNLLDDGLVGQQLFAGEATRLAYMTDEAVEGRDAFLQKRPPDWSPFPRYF
PV pol inh intensity: also measured in PV pol inh; calls as there; % elongation; measured here: total intensity read-out; formula for this scale not given here;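 total fluorescence in place of polarization; lower means less elongation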
The depositor's hits bear a star; . = not tested or not shown; & = joins results of further samples.

no.	molecule	MenB inh	MbtI inh
1	COc1ccc(C(=O)NC(C(=O)N2CCN(c3ccccc3O)CC2)C(C)C)cc1 (configuration not stated)	1	17
2	Nc1nonc1C(=O)OCC(=O)N1CCOCC1	5	.
3	Cc1ccccc1NC(=O)c1cc2ccccc2cc1O	-56	8
4	O=C1CC(n2nnnc2-c2ccccc2)C2COC1O2 (configuration not stated)	-11	.
5	CN1CCN(c2ccccc2C=C(C#N)C#N)CC1	-39	-24
6	Nc1ccc2nc(SCc3ccccc3Cl)sc2c1	-18	3
7	O=C(N=S1CCN(c2ncc(C(F)(F)F)cc2Cl)CC1)Nc1ccc(Cl)cc1	-3	-4
8	COc1ccc(C(c2nnnn2CC2CCCO2)N2CCN(c3ccc(F)cc3)CC2)cc1OC (configuration not stated)	-34	4

no.	PV pol inh intensity	PV pol inh
1	108	101
2	106	102
3	101	97
4	113	109
5	91	94
6	100	103
7	103	103
8	102	102

(further entries)
no.	molecule	MenB inh	MbtI inh
9	COc1ccc2c(c1)CCc1sc(NC(=O)c3ccco3)nc1-2	-10	62
10	CCn1c(C(=O)O)c(CC(=O)NC2CCCCCC2)c2ccccc21	7	13
11	COc1ccc(CNc2nc3nc4c(c(=O)n3[nH]2)CCC4)cc1OC	7	-4
12	CCOC(=O)c1nnn2c1nc(SCC(N)=O)c1ccccc12	-28	86
13	COc1ccc(S(=O)(=O)N(C)c2ccc(OCC(=O)Nc3cc(C)on3)cc2)cc1	-12	8
14	C(=N\n1cnnc1)/c1nc2ccccc2n1Cc1ccccc1	.	20
15	COc1ccc(CCNC(=O)Cn2c(SCc3ccc(C)cc3)nc3cccnc32)cc1OC	-14	36
16	COC(=O)C1c2sc(=O)[nH]c2SC2C(=O)N(c3ccc(Br)cc3)C(=O)C21 (configuration not stated)	-4	18

no.	PV pol inh intensity	PV pol inh
9	100	98
10	101	100
11	101	101
12	106	103
13	106	102
14	100	102
15	107	102
16	115	101

A stretch from further up:
no.	molecule	MenB inh	MbtI inh
9	COc1ccc2c(c1)CCc1sc(NC(=O)c3ccco3)nc1-2	-10	62
10	CCn1c(C(=O)O)c(CC(=O)NC2CCCCCC2)c2ccccc21	7	13

no.	PV pol inh intensity	PV pol inh
9	100	98
10	101	100

The list continues:
no.	molecule	MenB inh	MbtI inh
17	COc1ccc(C2=NN(C(=O)c3cccnc3)C(c3ccccc3O)C2)cc1 (configuration not stated)	-3	3
18	CC(=O)Nc1ncc2c(n1)CC(c1ccccc1)CC2=O (configuration not stated)	-7	-1
19	O=c1[nH]cnc(O)c1Cc1c(O)nc[nH]c1=O	-24	-5
20	NC(=O)COC(=O)/C=C/c1ccc(Cl)cc1	4	14
21	COc1ccccc1/C=C1\CS/C(=C\c2ccccc2OC)C1=O	-9	5
22	Nc1nc2c(c(=O)[nH]1)C(c1ccccc1)C1=C(N2)c2ccccc2C1=O (configuration not stated)	-48	2
23	Cc1cc(C)cc(NC(=O)Cn2c(=O)oc3cc(S(=O)(=O)N4CCCCCC4)ccc32)c1	0	-4
24	Cc1c(C)n(Cc2ccccc2)c2ccc(C(=O)OCCN3CCOCC3)cc12	-22	.

no.	PV pol inh intensity	PV pol inh
17	110	106
18	101	104
19	99	104
20	113	101
21	107	102
22	101	103
23	104	101
24	111	102

Profiles, looked up by structure. Screens in order: MenB inh | MbtI inh | PV pol inh intensity | PV pol inh
Shown for COc1ccccc1/C=C1\CS/C(=C\c2ccccc2OC)C1=O = -9 | 5 | 107 | 102
Shown for CC(=O)Nc1ncc2c(n1)CC(c1ccccc1)CC2=O (configuration not stated) = -7 | -1 | 101 | 104
Shown for NC(=O)COC(=O)/C=C/c1ccc(Cl)cc1 = 4 | 14 | 113 | 101
Shown for Cc1c(C)n(Cc2ccccc2)c2ccc(C(=O)OCCN3CCOCC3)cc12 = -22 | . | 111 | 102

Additional compounds follow:
no.	molecule	MenB inh	MbtI inh
25	CCc1cc(=O)oc2c(C)c(OC)ccc12	-15	110
26	COC(=O)c1ccc(C(=O)Nc2cc(Cl)ccc2Cl)cc1N	.	-179
27	COc1ccc(-c2cc(C(=O)N3CC(C)OC(C)C3)c3ccccc3n2)cc1OC (configuration not stated)	-8	-2
28	CN(C)S(=O)(=O)c1ccc(C(=O)NCC2CCCO2)cc1 (configuration not stated)	-5	-4
29	Cc1sc2c(c1C)CN(C(C)(C)C)CN2C(=O)c1ccccc1	-14	10
30	COc1ccc(-n2cc(C(=O)NCCN3CCc4ccccc4C3)c3ccccc3c2=O)cc1	-19	0
31	O=C1C2C=CC=CC2=NC(=S)[N+]1=Nc1c(O)[nH]c2ccccc12 (configuration not stated)	-43	.
32	O=C(c1ccccc1)n1cnc2ccccc21	11	.

no.	PV pol inh intensity	PV pol inh
25	107	104
26	107	105
27	108	103
28	104	105
29	105	103
30	96	101
31	101	97
32	103	104

Additional results
no.	molecule	MenB inh	MbtI inh
33	CCOC(=O)c1sc(N2N=C(C)/C(=C\c3ccco3)C2=O)nc1C	-20	-7
34	CC(C)(CNC(=O)c1cc(=O)[nH]c2ccccc12)N1CCOCC1	-19	29
35	CCCCn1c(N)c(N(C(=O)c2ccc(Cl)c(Cl)c2)C2CCCC2)c(=O)[nH]c1=O	0	6
36	C=C(C)CN(CC)C(=O)CSc1nnc(Cc2cccc3ccccc23)n1N	-21	0
37	O=C(NS(=O)(=O)NC(=O)c1ccccc1)c1ccccc1	.	-8
38	Cc1ccc2nc(CCC(=O)O)[nH]c2c1	-11	.
39	FC(F)(F)c1ccc(Oc2ccc(Oc3ccc(C(F)(F)F)cn3)cc2)nc1	6	-9
40	O=C(O)Cn1cc(C(=S)N2CCCCC2)c2ccccc21	-34	43

no.	PV pol inh intensity	PV pol inh
33	106	102
34	.	.
35	100	97
36	96	101
37	104	104
38	93	101
39	112	111
40	88	93

Next structures.
no.	molecule	MenB inh	MbtI inh
41	CC(C)(C)NC(=O)CCn1nc(-c2ccccc2)c2ccccc2c1=O	17	16
42	OC(Cn1cncn1)(Cn1cncn1)c1ccc(F)cc1F	-7	-6
43	CC(C)(C)NC(=S)N/N=C/c1ccc(O)cc1	-17	-12
44	CCc1ccc(C2CC(=O)Nc3c2c(C)nn3-c2nc3ccccc3s2)cc1 (configuration not stated)	13	16
45	O=C(Cc1csc2ccc(Cl)cc12)OCc1ccccc1	-16	-4
46	CCC(CC)C1C(C#N)=C(N)SC(N)=C1C#N	-29	25
47	Cc1ccc(CC(=O)O)cc1C	-106	3
48	O=C(OCc1ccccc1Cl)c1ccc2c(=O)n3c(nc2c1)CCC3	-7	-17

no.	PV pol inh intensity	PV pol inh
41	102	99
42	102	98
43	103	101
44	99	102
45	109	102
46	104	102
47	114	104
48	100	104

New compounds follow.
no.	molecule	MenB inh	MbtI inh
49	CCc1ccc(N2C(=O)CSC23C(=O)N(C)c2ccccc23)cc1 (configuration not stated)	7	-4
50	Cc1ccc2oc(=O)c3cnn(CC(=O)N(C)Cc4ccccc4)c3c2c1	1	-5
51	O=C(COC(=O)c1c2c(nc3ccccc13)CCCC2)c1ccco1	-19	-2
52	O=C1CCSC2=C1CS(=O)(=O)c1ccc(Cl)cc12	-7	4
53	COc1ccc(CCCOC(Cn2ccnc2)c2ccc(OC)cc2)cc1 (configuration not stated)	-4	-12
54	CC(C)(Oc1ccc(Cl)cc1)C(=O)Nc1cccc(-c2nn3cnnc3s2)c1	-10	-3
55	CCOC(=O)c1cnc2c(S(=O)(=O)C(C)C)csc2c1Sc1ccc(Cl)cc1	-15	-10
56	CCOC(=O)c1ccc(Oc2nc(N(C)C)nc(N3CCOCC3)n2)cc1	5	-2

no.	PV pol inh intensity	PV pol inh
49	102	101
50	105	102
51	99	102
52	107	102
53	103&102	100&100
54	101	102
55	116	107
56	104	103

Carrying on.
no.	molecule	MenB inh	MbtI inh
57	Cc1n[nH]c(=O)c2c(NC(=O)COC(=O)C3CC4CCCC(C3)C4=O)oc(C)c12 (configuration not stated)	-10	3
58	Brc1ccc(-c2ccc(Br)s2)s1	-19	-8
59	Cc1ccccc1C(=O)N1CCC(C(=O)NC2CCCCCC2)CC1	34	2
60	Cc1cc(C)cc(Oc2c(F)c(F)c(F)c(F)c2F)c1	-18	-12
61	CCOC(=O)c1c(NC(=O)C(C)Sc2nnc(CNC(=O)c3ccco3)n2-c2cc(C)ccc2C)sc2c1CCC2 (configuration not stated)	-4	-6
62	Cc1nn(-c2ccccc2)c2sc(C(=O)N3CCN(C(=O)c4ccccc4)CC3)cc12	-30	-10
63	CCN(Cc1ccccc1)C(=O)Cn1cc2c(n1)CCCCCC2	4	-2
64	Cc1cc(C(=O)Cn2cnc3ccsc3c2=O)c(C)n1CCC1=CCCCC1	1	9

no.	PV pol inh intensity	PV pol inh
57	109	101
58	101	107
59	103	101
60	101	103
61	103	101
62	100	100
63	99	101
64	110	103

Next results:
no.	molecule	MenB inh	MbtI inh
65	Nc1nnc(N)c2ccccc12	-85	-34
66	CC(C(=O)Nc1ccc(S(=O)(=O)N2CCCC2)cc1)N1CCc2ccccc2C1 (configuration not stated)	-30	-5
67	CCc1ccc(N2COc3ccc4cc(C(=O)OC)c(=O)oc4c3C2)cc1	-145	5
68	COC(=O)c1c(-c2ccc(OC)c(OC)c2)csc1NC(=O)C1CC1c1ccccc1 (configuration not stated)	-38	.
69	N#CC(C#N)=CNc1nn(-c2ccccc2)cc1C#N	-13	17
70	O=C(CN1C(=O)CCC1=O)Nc1ccccc1-c1nc2ccccc2o1	-40	6
71	CC(C)N1CC(O)=C(c2nc3ccccc3[nH]2)C1=N	-6	14
72	CCCCc1nnc(NC(=O)CSc2nc(O)c(NC(C)=O)c(=O)[nH]2)s1	-32	7

no.	PV pol inh intensity	PV pol inh
65	96	100
66	115	104
67	94	98
68	107	107
69	98	104
70	103	103
71	111	105
72	91	96

Continuation:
no.	molecule	MenB inh	MbtI inh
73	Cc1[nH]c(=O)[nH]c(=O)c1S(=O)(=O)N1CCCc2ccccc21	13	7
74	CC1CCC(C(C)C)C(OC(=O)CSc2nccc(=O)[nH]2)C1 (configuration not stated)	-27	-5
75	Cc1oc(-c2ccc(Cl)cc2)nc1CSc1nc2ccncc2[nH]1	-7	-7
76	Cc1ccc(S(=O)(=O)NC2CCCCC2)c2nsnc12	-1	9
77	COc1cccc(N2CCN(C(=O)c3nn(C)c4c3COc3ccccc3-4)CC2)c1	7	-75
78	CC(C(=O)N1CCCCC1)N(c1ccccc1)S(C)(=O)=O (configuration not stated)	-3	-25
79	CC1CCN(C(=O)c2ccc(S(=O)(=O)N(C)C)cc2)C(C)C1 (configuration not stated)	-13	-11
80	O=C(COc1ccccc1)OCc1ccccc1F	.	-7

no.	PV pol inh intensity	PV pol inh
73	104	102
74	99	104
75	101	103
76	102	102
77	101	102
78	100	100
79	101	102
80	107	101

Three structures out of the list, arranged by SMILES length, low to high.
no.	molecule	MenB inh	MbtI inh
78	CC(C(=O)N1CCCCC1)N(c1ccccc1)S(C)(=O)=O (configuration not stated)	-3	-25
74	CC1CCC(C(C)C)C(OC(=O)CSc2nccc(=O)[nH]2)C1 (configuration not stated)	-27	-5
79	CC1CCN(C(=O)c2ccc(S(=O)(=O)N(C)C)cc2)C(C)C1 (configuration not stated)	-13	-11

no.	PV pol inh intensity	PV pol inh
78	100	100
74	99	104
79	101	102

More results:
no.	molecule	MenB inh	MbtI inh
81	CC1CCCC(NC(=O)Cn2c(-c3cccs3)cc3ccccc32)C1C (configuration not stated)	-4	165
82	Cc1nc2c([nH]1)C(c1ccc(C(C)C)cc1)C(C#N)=C(C#N)O2 (configuration not stated)	-5	.
83	NC(=O)c1sc2c(c1N)C(c1ccc(Cl)cc1)C1=C(N2)c2ccccc2C1=O (configuration not stated)	-13	.
84	CNC(=O)Cc1nc2ccccc2[nH]1	13	-50
85	CCCC(=O)NCCc1cc2ccc(C)cc2[nH]c1=O	-12	19
86	O=C(Oc1c(C(=O)c2ccccc2)sc2ccccc12)c1ccco1	-63	-15
87	Cc1cc(N2CCOCC2)ccc1C=C1C(=O)c2ccccc2C1=O	-40	5
88	C=CCS(=O)(=O)Nc1ccccc1	-3	-24
89	Cc1cc(N2CCN(C3CCCCC3)CC2)c2nncn2n1	1	4
90	CCC(=O)NC(Nc1ccc(O)cc1)(C(F)(F)F)C(F)(F)F	9	3
91	CC(=O)N1CC(C(=O)Nc2ccc(S(=O)(=O)N3CCOCC3)cc2)Oc2ccccc21 (configuration not stated)	11	-1

no.	PV pol inh intensity	PV pol inh
81	106	102
82	113	109
83	105	99
84	105	99
85	98	101
86	103	98
87	127	115
88	100	98
89	102	100
90	99	104
91	107	97

Bioassay records as filed in PubChem.
